Compound activity deposited in PubChem by several laboratories.
rRNA inh HTS: inhibits bacterial ribosomal RNA function over humanized ribosomes | E. coli WT GFP vs humanized-ribosome RFP mutants, fluorescence, 24 h; active compounds read low; DMSO median 0, no signal -100 | hit rate 1.6% among 350,000 | GFP signal change (wild-type ribosome), % (no concentration beside the values);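 active means significant combined selectivity score with lowered wild-type GFP, culture density cut under 30%, mutant RFP and density less affected; inactive means any of these conditions unmet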; further: one replicate is shown; some compounds called inactive have numbers as strong as hits
LANA-H2A inh: blocks KSHV LANA binding to histone H2A/H2B. Q9QR71. inhibition, % (no concentration beside the values). hit rate 0.6% among 320,000. cell-free LANA-H2A/H2B peptide, fluorescence polarization. AID 2629; in the data active means inhibition mostly above about 10%, no sharp cut-off; inactive means mostly below about 6.7%;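 further: stock transfer was 7.5 nL into about 10 µL; 0% = median of vehicle wells and 100% = median of positive control wells; one replicate is shown; the record names a cut of 25% in any replicate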
Calb FLC: C. albicans growth modulation with fluconazole; hit rate 0.57% among 300,000; C. albicans CaCi-2 (fluconazole-resistant clinical isolate) + fluconazole, Alamar Blue growth, 48 h; growth inhibition, % (concentration not given with the values);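 active means most replicates above 75%; inconclusive means exactly half above 75%; inactive means most below 75%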;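 further: all wells also contain fluconazole at 8 µg/ml as a sub-toxic cotreatment; 0% = median of DMSO wells and 100% = median of geldanamycin control wells; wells of about 8 µL received 7.5 nL stock; the first replicate is given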
T cruzi inh: T. cruzi replication inhibition; T. cruzi beta-gal in NIH3T3, luminescence, 90 h; hit rate 1.4% among 300,000; inhibition, % (concentration not given with the values); AID 1885;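 active means mean inhibition across valid replicates above about 55%, limit read from the data; inconclusive means mean below that limit but half or more replicates reach it; inactive means mean below it, under half of replicates reach it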;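 further: signal also drops with host cell toxicity which is not excluded here; 0% = plate median of DMSO wells and 100% = zero luminescence signal; higher percent means less beta-gal luminescence so fewer parasites; stock transfer was 50 nL into about 50 µL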
Beta2AR agonist: human beta-2 adrenergic receptor agonism by FAP | AID 504454 | response, % (no concentration beside the values) | hit rate 0.43% among 340,000 | Am2.2-beta2AR cells, FAP receptor internalization, flow cytometry; reference of the scale not given here;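 active means response above a set limit, near 3 SD of response in nonfluorescent compounds, cut at about 42% in these data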;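 further: stock transfer was 100 nL into about 11 µL; a reference agonist was the positive control; negative values mostly stem from fluorescent compounds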
Target sequence (P07550 whole entry, looked up): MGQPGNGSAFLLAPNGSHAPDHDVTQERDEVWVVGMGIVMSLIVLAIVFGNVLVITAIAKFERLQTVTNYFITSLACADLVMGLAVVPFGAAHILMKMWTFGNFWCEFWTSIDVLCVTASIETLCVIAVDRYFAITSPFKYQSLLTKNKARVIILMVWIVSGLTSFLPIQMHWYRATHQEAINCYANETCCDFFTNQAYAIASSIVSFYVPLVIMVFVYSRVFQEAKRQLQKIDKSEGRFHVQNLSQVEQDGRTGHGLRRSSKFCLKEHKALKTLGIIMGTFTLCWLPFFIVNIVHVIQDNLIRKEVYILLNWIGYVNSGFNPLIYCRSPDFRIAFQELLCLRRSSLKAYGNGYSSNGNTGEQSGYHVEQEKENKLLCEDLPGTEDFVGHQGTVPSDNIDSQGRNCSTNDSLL
A1 inh: inhibitors of the anti-apoptotic protein A1, read as caspase activation; caspase activation, % (no concentration beside the values); hit rate 0.066% among 330,000; MEF A1-2A-BIM cells, Caspase-Glo 3/7 luminescence, 3 h; percent of clofoctol response, vehicle zero;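 active means over half of replicate activation scores above 10%, or exactly half above 10 with the replicate mean above 10; inconclusive means replicate mean below 10 yet half the replicates above 10; inactive means over half of replicates below 10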;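 further: wells of about 30 µL received 50 nL stock; many hits fall short of the cut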
Beta apoptosis: blocks beta cell apoptosis | INS-1E cytokine-induced death, ATP luminescence, 48 h; percent of positive-control rescue, neutral wells zero | protection from apoptosis, % (concentration not given with the values) | hit rate 0.8% among 300,000 | AID 435005;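 active means all replicates at 75% or more, or half of them and the mean; inconclusive means half reach 75% but not the mean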;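 further: 0% = cytokine-treated negative control wells and 100% = positive control rescue; higher means more ATP so stronger rescue from cytokine killing; wells of about 40 µL received 100 nL stock; the first replicate is given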
ALR inh: human ALR oxidase inhibition via reduced H2O2; inhibition, % (test concentration not listed); hit rate 3.8% among 290,000; purified ALR, DTT oxidation, H2O2 HRP-luminol luminescence; AID 485317;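 active means mean and each replicate at 75% or more; inconclusive means only one of the two met; inactive means neither met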;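 further: stock transfer was 7.5 nL into about 7.5 µL; 0% = neutral wells and 100% = wells with inactivated enzyme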
Target sequence (P55789 whole entry, looked up): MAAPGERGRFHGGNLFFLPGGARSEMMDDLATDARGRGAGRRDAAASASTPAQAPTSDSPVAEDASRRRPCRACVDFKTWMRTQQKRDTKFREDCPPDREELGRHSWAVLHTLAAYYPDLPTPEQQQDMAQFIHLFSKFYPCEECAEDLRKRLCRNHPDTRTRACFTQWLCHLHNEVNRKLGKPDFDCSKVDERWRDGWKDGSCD
rRNA inh HTS OD600: second read-out of rRNA inh HTS, no call of its own (marks repeat the call); OD600 change, %; measured here: OD600 growth;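 optical density of the mix in the first replicate; 0 = DMSO median and -100 = no signal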
rRNA inh HTS RFP: second read-out of rRNA inh HTS, no call of its own (marks repeat the call); RFP signal change, %; measured here: RFP humanized mutant strains;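 first replicate; 0 = DMSO median and -100 = no signal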
An asterisk follows results filed as active; ? = inconclusive; · = not tested or not shown. Not all compounds are listed, so the mix of outcomes need not match the whole.

Under each structure: rRNA inh HTS	rRNA inh HTS OD600	rRNA inh HTS RFP	LANA-H2A inh	Calb FLC	T cruzi inh	Beta2AR agonist	A1 inh	Beta apoptosis	ALR inh
CCOC(=O)CSc1nc(N2CCOCC2)c2c(c1C#N)CC(C(C)C)OC2 (configuration not stated)
    -13	-3	4.4	-4.2	-1	12	2	0.5	-4	-23
CC(=O)Nc1ccc(S(=O)(=O)Oc2ccccc2N2CCCCC2)cc1
    60	-12	64	-3.9	-6	12	-4	-0.3	-3	-7
Cc1cc(=O)oc2c3c(cc(OCC(=O)NCc4ccccc4)c12)OC(C)(C)CC3
    -26	-49	-16	-1.1	0	21	-6	0.8	12	·
COc1ccccc1N1CCN(C(=O)c2ccc(Cn3c(=O)[nH]c4ccsc4c3=O)cc2)CC1
    3	3	2.2	0.3	1	7	2	0.7	0	3
CSc1ncccc1C(=O)NCCc1ccc(Cl)cc1
    4	4	2.7	-0.1	-9	-1	0	0.6	-3	-2
CC(=O)N1CCN(C(=O)CCNS(=O)(=O)c2ccc(Br)cc2)CC1
    2	3	-2.8	-7.4	·	·	0	-0.2	2	-8
CCN(CC)CCCN1C(=O)CSC1c1ccc2c(c1)OCO2 (configuration not stated)
    ·	·	·	1.8	3	8	-3	-0.1	-1	5
Cc1nn(-c2cccc(Cl)c2)c(Cl)c1/C=N/NC(=O)c1cccs1
    5	-1	-9.4	3.1	8	1	-10	-0.6	15	-3
CC(=O)c1ccc(C(=O)N(C)C2CCCN(Cc3ccccc3F)C2)s1 (configuration not stated)
    1	1	-1.5	1.0	3	26	-6	0.0	4	-4
CN(CCC#N)C(=S)Nc1ccc(S(=O)(=O)N2CCOCC2)cc1
    10	11	0.0	2.0	-6	1	7	0.2	2	-3
COc1ccccc1C(=O)C1CCCN(Cc2cn[nH]c2C2CCCCC2)C1 (configuration not stated)
    9	7	2.0	-3.5	-2	62*	3	0.1	4	-9
Cc1ccc(Cl)cc1N1CCN(C(=O)c2ccc(CS(=O)Cc3ccc(Cl)cc3)o2)CC1 (configuration not stated)
    -12	-21	24	-1.3	0	5	-4	-0.2	-8	2
C/C(CC(=O)Nc1ccc2c(c1)OCCO2)=N\NC(=O)COc1ccccc1C
    -5	-4	0.2	-2.1	-1	-18	7	0.9	-3	3
COc1cc(NC(=O)C2CCCCC2)c(OC)cc1NC(=O)c1ccccc1
    1	13	2.0	-1.7	16	3	-18	-1.1	3	-16
CCOC(=O)C1=C(COC(=O)CCOc2ccccc2)NC(=O)NC1C (configuration not stated)
    8	-1	-0.7	6.6	·	·	5	-0.3	0	-2

Under each structure: rRNA inh HTS	rRNA inh HTS OD600	rRNA inh HTS RFP	LANA-H2A inh	Calb FLC	T cruzi inh	Beta2AR agonist	A1 inh	Beta apoptosis	ALR inh
CCCCNC(=O)C12CCC(C)(C(=O)C1Br)C2(C)C (configuration not stated)
    ·	·	·	-1.9	-1	-3	-3	-0.9	-1	·
Cc1cc(NC(=O)CSCC(=O)OCc2nnc(-c3ccccc3)o2)no1
    -3	6	-2.7	2.1	-1	-1	3	-1.4	-4	-4
CC(=O)c1ccc(NC(=O)C2CCN(S(=O)(=O)c3cccc4cccnc34)CC2)cc1
    0	-2	4.9	2.0	1	-5	-7	0.3	-4	-24
CC(C)Oc1cccc(-c2cc(C(=O)N3CCN(S(C)(=O)=O)CC3)c3ccccc3n2)c1
    ·	·	·	1.7	8	-3	-9	0.2	-2	-16
Cc1ccnc(NC(=O)c2cccc(NC(=O)c3ccccc3C)c2)c1
    13	12	1.0	6.1	9	-7	4	-0.9	-7	0
COc1ccc(CNC(=O)C2CCCN(S(=O)(=O)c3ccccc3)C2)cc1 (configuration not stated)
    -6	2	-2.5	-4.7	·	-1	-7	0.3	-1	4
O=C(CCC(=O)N(CC(=O)NC1CCCC1)Cc1ccc(F)cc1)Nc1nccs1
    4	12	1.4	-3.8	-10	-2	-7	0.1	-1	-3
Cc1nnc(SCC(=O)N2CCCC(C(=O)c3ccc(Cl)cc3)C2)o1 (configuration not stated)
    ·	·	·	1.0	-4	-3	-3	0.1	3	-25
O=C(CSc1cccc2cccnc12)N/N=C/c1ccc(O)cc1
    -14*	7.7*	2.6*	-4.4	1	-8	9	2.0	-4	·
CCOC(=O)C1CCCN(CC(=O)Nc2nccs2)C1 (configuration not stated)
    4	5	2.1	-0.7	-2	-3	4	0.7	-2	-10
CN1CC(=O)N(CC(=O)NCc2ccc3c(c2)OCO3)C1=O
    ·	·	·	1.7	0	-25	3	0.3	-4	1
CC(=O)c1c(C)n(CC(=O)NCc2ccco2)c2ccccc12
    9	4	-1.0	3.4	-7	-8	-8	0.6	?	·
CC(C(=O)N1CCN(c2ccc(Cl)cc2)CC1)c1ncc(C(F)(F)F)cc1Cl (configuration not stated)
    ·	·	·	2.1	31	-2	-7	0.0	5	2
CCC(C)NC(=O)CSc1nc2n[nH]c(C)c2c(=N)n1-c1ccc(OC)cc1 (configuration not stated)
    ·	·	·	-0.4	-6	-19	4	0.4	16	-16
CN(C)C(=O)CSc1nnc([C@H](Cc2ccccc2)NC(=O)OC(C)(C)C)o1
    15	4	0.8	1.7	0	-13	3	-0.4	1	0

Under each structure: rRNA inh HTS	rRNA inh HTS OD600	rRNA inh HTS RFP	LANA-H2A inh	Calb FLC	T cruzi inh	Beta2AR agonist	A1 inh	Beta apoptosis	ALR inh
Cc1ccc(C)c(NC(=O)C(Sc2cccc[n+]2[O-])c2ccccc2)c1 (configuration not stated)
    8	4	6.9	3.7	-6	-12	-2	1.7	-2	-17
CCn1nc(C(=O)OC(C(=O)c2c[nH]c3ccccc23)c2ccccc2)c2ccccc2c1=O (configuration not stated)
    ·	·	·	0.8	-6	8	-8	-1.5	3	·
COc1cc(O)c(CCC(=O)c2ccc(OC)c(OC)c2)c(OC)c1
    -25	-30	-5.6	2.2	8	-9	6	0.0	-7	26
CN1CCN(c2ccc(S(=O)(=O)N3CCOCC3)cc2NC(=O)CSCc2ccccc2)CC1
    3	6	-1.7	4.6	·	·	1	2.4	1	-1
COC(=O)[C@H]1[C@@H](C)N(CCc2cc(OC)c(OC)c(OC)c2)C(=O)N[C@H]1c1ccccc1
    10	9	-0.4	-1.9	-8	-27	-3	0.3	3	0
COc1ccc(NC(=O)C/C(C)=N/NC(=O)C(=O)Nc2cccc(Cl)c2C)c(OC)c1
    -14	-8	9.7	4.5	-9	1	2	-0.7	4	5
CCCOc1ccc(NC(=O)c2c(-c3ccccc3)noc2C)cc1
    1	7	-1.5	-2.7	9	9	10	0.4	4	11
CSc1ccccc1NC(=O)Cn1c(-c2cscn2)nc2ccccc21
    ·	·	·	-0.4	7	0	-27	-0.2	-2	0
COc1cccc(NC(=O)Nc2ccc3c(c2)CCC3)c1
    0	11	-0.4	-14	-16	3	5	-0.6	1	14
Cc1cc(C)n(CCN(C)Cc2cn[nH]c2-c2ccc(F)cc2F)n1
    3	-5	-4.5	9.8	3	-1	-8	0.4	-2	4
CCCCC(=O)Nc1ccc(F)c(Cl)c1
    ·	·	·	-1.0	-15	-8	2	-3.0	-1	-6
Cn1c(=O)c(Oc2ccc(F)cc2)c(O)c2ccccc21
    15	2	-1.1	2.7	-10	-16	-4	-1.2	-8	6
O=C(c1cc(COc2ccc(F)cc2F)on1)N1CCSCC1
    -1	4	3.6	-1.2	4	-9	2	-0.6	-12	-19
COc1ccccc1NS(=O)(=O)c1ccc2oc(SC)nc2c1
    2	-10	0.3	0.4	17	?	1	-0.4	·	-2
O=C(/C=C/c1ccccc1[N+](=O)[O-])OC1CCCCC1=O (configuration not stated)
    5	1	-0.2	6.2	-19	·	-6	0.2	3	·

Under each structure: rRNA inh HTS	rRNA inh HTS OD600	rRNA inh HTS RFP	LANA-H2A inh	Calb FLC	T cruzi inh	Beta2AR agonist	A1 inh	Beta apoptosis	ALR inh
CCc1cc(-c2n[nH]c(CCC(=O)O)c2-c2nc3ccccc3n2C)c(O)cc1O
    14	9	0.7	2.6	-2	-6	-8	0.3	-3	15
CC(C(=O)NC1CCCC1)N1CCN(S(=O)(=O)c2ccc(C(C)(C)C)cc2)CC1 (configuration not stated)
    3	6	4.4	-2.4	·	·	-7	0.0	-7	·
COc1ccccc1CNC(=O)CCNC(=O)N1CC(=O)Nc2ccccc21
    2	5	-6.7	0.9	-1	-5	-2	-0.1	·	-1
CSc1ccccc1C(=O)C1CCCN(C(=O)c2csnn2)C1 (configuration not stated)
    6	6	-0.2	0.9	-2	-7	9	-0.1	-5	-5
Cc1ccc(NC(=O)C/C(N)=N/O)cc1C
    ·	·	·	-4.2	-7	-22	2	1.0	·	5
O=C(N/N=C/c1cccnc1)c1cc(O)c(O)c(O)c1
    11	0	-2.3	-1.3	12	-2	2	-0.1	-6	97*
COc1cc(C2C(C#N)=C(N)N(N(C)C)C3=C2C(=O)CCC3)cc(OC)c1OC (configuration not stated)
    5	-4	-1.9	-6.9	7	-7	-3	-0.3	-3	-8
CCN1CC=C2C(C#N)=C(N)C(C#N)(C#N)C(c3cc(Cl)ccc3Cl)C2C1 (configuration not stated)
    ·	·	·	13	-29	3	-55	-0.3	5	-20
NC(=O)C(F)(F)C12OC3C4C5CC(C6C5C3C61)C42 (configuration not stated)
    11	2	2.2	1.1	-3	0	1	0.6	·	-5
O=C(CCc1ccc(S(=O)(=O)N2CCOCC2)cc1)Nc1ccc(F)cc1[N+](=O)[O-]
    1	11	-0.7	-3.5	·	·	-6	1.6	-3	-6
O=C1CC(c2ccc(F)cc2)C2=C(CCCC2=O)N1 (configuration not stated)
    ·	·	·	0.0	-1	-10	3	-0.2	-6	-3
CC(C)(C)OC(=O)N1CCC2(CC1)Oc1ccc(F)cc1C(=O)C21CC(c2cccnc2)=NO1 (configuration not stated)
    ·	·	·	-2.9	18	-5	-17	-0.6	4	-6
Cc1ccc(C(=O)NCCNC(=O)c2cccnc2)cc1
    8	11	0.3	-2.3	-5	-4	4	-0.1	-6	-4
Cc1cc(/C=C2/NC(=S)NC2=O)c(C)n1-c1cccnc1
    9	4	1.6	1.3	1	-8	-23	0.2	-12	-1
CC1=C(c2ccc(C)cc2)[N+](=O)C(C)(C)N1[O-]
    9	7	-2.5	-1.2	-10	-2	5	0.1	-6	8

Under each structure: rRNA inh HTS	rRNA inh HTS OD600	rRNA inh HTS RFP	LANA-H2A inh	Calb FLC	T cruzi inh	Beta2AR agonist	A1 inh	Beta apoptosis	ALR inh
CCCn1c(=O)c(C(=O)NCCc2ccc(Cl)cc2)c(O)c2ccccc21
    4	1	-0.2	4.2	3	10	10	-0.2	-6	-7
CCN(CC(=O)NC1CC1)S(=O)(=O)c1ccc(C)cc1
    3	1	-1.0	-0.7	-2	-7	4	1.4	0	-8
O=C(COC(=O)c1ccc2[nH]c3c(c2c1)CCCC3)Nc1ccccc1
    1	-6	-2.9	0.6	-27	24	14	-0.9	-4	1
COc1ccc(C(=O)N(CCCO)C(C)C(=O)NC2CCCCC2)cc1OC (configuration not stated)
    ·	·	·	-5.8	-9	-7	8	1.8	-2	-10
Cc1csc(NC(=O)c2cc3ccccc3o2)n1
    -5	-3	3.3	-2.3	·	·	2	-11	3	·
